HIV Env fusion: HIV envelope-mediated fusion inhibition; inhibition, % at 12.3 µM; 1.1% of 360,000 active; AID 651610; HeLa-JRFL Env/CEM21 cell fusion, luciferase;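 active = mean replicate inhibition score of at least 50 and every replicate individually at or above 50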;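 also: 0% = plate neutral controls and 100% = maraviroc near 300 nM; one replicate is shown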
UUG fidelity: modulators of start codon recognition fidelity in yeast; S. cerevisiae UUG-firefly luciferase reporter, luminescence/redox ratio; AID 602363; activity score, % at 18.7 µM; 0.13% of 350,000 active;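 active = replicate mean at a twofold rise or more, about +100% in these data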;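 also: firefly luciferase made from a UUG start codon reports start codon fidelity; reporter light over untreated wells divided by growth signal over untreated wells; some hits fall short of that in this replicate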
Starred values were filed as active, the others as inactive; [ ] = remark or other dose. This is a subset; the hit share may differ from the screen's.

SMILES	HIV Env fusion	UUG fidelity
C[C@@H]1CCCCO[C@H](CN(C)S(=O)(=O)c2ccc(Cl)cc2)[C@@H](C)CN([C@H](C)CO)C(=O)c2cc(NC(=O)Nc3ccc4c(c3)OCO4)ccc2O1	-3.4[16.7 µM]	-14.0
C[C@@H]1CN([C@H](C)CO)C(=O)c2cc(N(C)C)ccc2O[C@H]1CN(C)S(C)(=O)=O	11.1[16.7 µM]	23.8
Cc1noc(C)c1S(=O)(=O)Nc1ccc2c(c1)C(=O)N([C@@H](C)CO)C[C@H](C)[C@@H](CN(C)C(=O)CCC(F)(F)F)OCCCC[C@H](C)O2	7.4[16.7 µM]	19.3
Cc1ccc(S(=O)(=O)N(C)C[C@@H]2Oc3c(NC(=O)NC4CCCCC4)cccc3C(=O)N([C@@H](C)CO)C[C@@H]2C)cc1	-9.8[16.7 µM]	8.1
C[C@@H]1CCCCO[C@@H](CN(C)C(=O)CCCN(C)C)[C@@H](C)CN([C@@H](C)CO)C(=O)c2cc(NS(=O)(=O)c3ccc(Cl)cc3)ccc2O1	4.7[16.7 µM]	31.6
CCCN(C)C[C@H]1OCCCC[C@@H](C)Oc2ccc(N(C)C)cc2C(=O)N([C@H](C)CO)C[C@H]1C	-30.3[16.7 µM]	2.9
C[C@@H]1CN([C@@H](C)CO)C(=O)Cc2cc(NS(=O)(=O)c3ccc(Cl)cc3)ccc2O[C@@H]1CN(C)Cc1ccc(Oc2ccccc2)cc1	8.0[16.7 µM]	8.2
C[C@H]1CCCCO[C@H](CN(C)S(=O)(=O)c2ccc(Cl)cc2)[C@@H](C)CN([C@@H](C)CO)C(=O)c2cc(NS(=O)(=O)c3ccc(F)cc3)ccc2O1	5.9[16.7 µM]	1.3
C[C@@H]1CN([C@@H](C)CO)C(=O)c2cccc(NS(=O)(=O)c3cccs3)c2O[C@@H]1CN(C)Cc1ccc(Cl)c(Cl)c1	45.9[16.7 µM]	-8.1
Cc1ccc(S(=O)(=O)N(C)C[C@H]2Oc3ccc(NC(=O)Nc4ccc5c(c4)OCO5)cc3C(=O)N([C@H](C)CO)C[C@@H]2C)cc1	4.0[16.7 µM]	4.0
C[C@@H]1CCCCO[C@@H](CN(C)C(=O)c2ccccc2)[C@@H](C)CN([C@H](C)CO)C(=O)c2cc(NS(=O)(=O)c3ccc(F)cc3)ccc2O1	2.9[16.7 µM]	3.8
Cc1noc(C)c1NC(=O)N(C)C[C@H]1Oc2ccc(NC(=O)Nc3ccccc3)cc2C(=O)N([C@@H](C)CO)C[C@H]1C	12.5[16.7 µM]	-99.1
C[C@@H]1CN([C@@H](C)CO)C(=O)c2cc(NC(=O)C3CCCCC3)ccc2O[C@@H](C)CCCCO[C@@H]1CN(C)C(=O)Nc1cccc2ccccc12	-19.5[16.7 µM]	3.0
O=C(C[C@@H]1C[C@H]2c3cc(NC(=O)c4ccc5c(c4)OCO5)ccc3O[C@H]2[C@H](CO)O1)NCC1CC1	7.0[16.7 µM]	11.3
O=C(C[C@@H]1C=C[C@@H](NC(=O)Nc2ccc(F)cc2)[C@@H](CO)O1)NCc1cccc(F)c1	-0.8[16.7 µM]	-12.5
CNC(=O)C[C@@H]1CC[C@H]2[C@H](COc3ccc(NC(=O)Nc4ccccc4F)cc3C(=O)N2C)O1	-4.6[16.7 µM]	3.4
Cc1ccc(-c2ccc3c(c2)O[C@@H](CN(C)C(=O)Nc2ccc(F)cc2)[C@@H](C)CN([C@H](C)CO)S3(=O)=O)cc1	6.6[16.7 µM]	-10.1
COc1ccc(S(=O)(=O)N[C@@H]2CC[C@@H](CC(=O)N3CCc4ccccc4C3)O[C@H]2CO)cc1	-15.1[16.7 µM]	-16.8
CNC(=O)C[C@@H]1CC[C@H]2[C@H](COc3ccc(NC(=O)Cc4cccs4)cc3C(=O)N2C)O1	-7.8[16.7 µM]	6.7
C[C@@H]1CN([C@@H](C)CO)C(=O)c2cc(C#CC3CC3)cnc2O[C@@H]1CN(C)Cc1ccccn1	18.7[16.7 µM]	-9.4
O=S(=O)(N[C@@H]1CC[C@@H](CCn2cc(-c3cccnc3)nn2)O[C@@H]1CO)c1ccccc1	10.3[16.7 µM]	-6.7
COc1ccc(NC(=O)N(C)C[C@@H]2OCCCC[C@@H](C)Oc3ccc(N(C)C)cc3C(=O)N([C@H](C)CO)C[C@@H]2C)cc1	7.6[16.7 µM]	-4.6
C[C@H]1CN([C@@H](C)CO)C(=O)c2cc(NC(=O)C3CC3)ccc2O[C@H]1CN(C)C(=O)Nc1cccc2ccccc12	21.3[16.7 µM]	-2.7
COC(=O)C[C@@H]1CC[C@@H]2[C@@H](COc3ccc(NC(=O)Nc4cccc(C)c4)cc3C(=O)N2C)O1	26.1[16.7 µM]	1.3
Cc1ccc(S(=O)(=O)N[C@@H]2CC[C@H](CC(=O)NCc3ccc(Cl)c(Cl)c3)O[C@@H]2CO)cc1	25.9[16.7 µM]	-6.2

Looked up one by one from the entries so far (4):
SMILES	HIV Env fusion	UUG fidelity
COc1ccc(NC(=O)N(C)C[C@@H]2OCCCC[C@@H](C)Oc3ccc(N(C)C)cc3C(=O)N([C@H](C)CO)C[C@@H]2C)cc1	7.6[16.7 µM]	-4.6
C[C@@H]1CN([C@@H](C)CO)C(=O)c2cc(C#CC3CC3)cnc2O[C@@H]1CN(C)Cc1ccccn1	18.7[16.7 µM]	-9.4
CNC(=O)C[C@@H]1CC[C@H]2[C@H](COc3ccc(NC(=O)Cc4cccs4)cc3C(=O)N2C)O1	-7.8[16.7 µM]	6.7
COc1ccc(S(=O)(=O)N[C@@H]2CC[C@@H](CC(=O)N3CCc4ccccc4C3)O[C@H]2CO)cc1	-15.1[16.7 µM]	-16.8

Going on with the list.
SMILES	HIV Env fusion	UUG fidelity
Cc1noc(C)c1NC(=O)Nc1ccc2c(c1)C(=O)N([C@@H](C)CO)C[C@H](C)[C@H](CN(C)CC1CC1)O2	12.3[16.7 µM]	9.1
C[C@@H]1CN([C@H](C)CO)C(=O)c2cc(NC(=O)Nc3ccc4c(c3)OCO4)ccc2O[C@@H](C)CCCCO[C@H]1CN(C)Cc1ccc(Cl)c(Cl)c1	62.6*[16.7 µM]	11.9
C[C@@H]1CCCCO[C@@H](CN(C)S(C)(=O)=O)[C@H](C)CN([C@@H](C)CO)C(=O)c2cc(NC(=O)Cc3ccccc3)ccc2O1	11.4[16.7 µM]	-15.8
C[C@H](CO)N1C[C@H](C)[C@H](CN(C)Cc2ccc(C(F)(F)F)cc2)Oc2ccc(NC(=O)CCCCCC(=O)Nc3ccccc3N)cc2CC1=O	40.5[16.7 µM]	-0.3
C[C@@H]1CN([C@@H](C)CO)C(=O)c2cccc(NS(=O)(=O)c3ccc(Cl)cc3)c2O[C@H]1CN(C)S(=O)(=O)c1ccccc1	-39.2[16.7 µM]	1.0
Cc1noc(C)c1NC(=O)Nc1ccc2c(c1)C(=O)N([C@@H](C)CO)C[C@@H](C)[C@@H](CN(C)Cc1ccc3c(c1)OCO3)OCCCC[C@H](C)O2	-2.9[16.7 µM]	8.7
C/C=C/c1cnc2c(c1)C(=O)N([C@@H](C)CO)C[C@@H](C)[C@@H](CN(C)C(=O)NC1CCCCC1)O2	-4.3[16.7 µM]	-2.4
CC(C)NC(=O)Nc1ccc2c(c1)CC(=O)N([C@H](C)CO)C[C@@H](C)[C@@H](CN(C)S(C)(=O)=O)O2	5.2[16.7 µM]	-7.6
COc1ccc(S(=O)(=O)N(C)C[C@H]2OCCCC[C@@H](C)Oc3ccc(NC(=O)Nc4ccc(F)cc4)cc3C(=O)N([C@H](C)CO)C[C@H]2C)cc1	8.5[16.7 µM]	-3.8
C[C@@H]1CN([C@@H](C)CO)C(=O)Cc2cc(NC(=O)CCCCCC(=O)Nc3ccccc3N)ccc2O[C@H]1CN(C)Cc1ccccc1	4.1[16.7 µM]	3.4
C[C@@H]1CN([C@H](C)CO)C(=O)c2cccc(NC(=O)C3CC3)c2O[C@@H]1CN(C)S(=O)(=O)c1cn(C)cn1	-17.5[16.7 µM]	-8.6
COc1ccccc1S(=O)(=O)N[C@H]1CC[C@@H](CC(=O)N2CCCCC2)O[C@@H]1CO	8.5[16.7 µM]	-13.9
CCCC#Cc1cnc2c(c1)C(=O)N([C@H](C)CO)C[C@@H](C)[C@H](CN(C)CCC)O2	12.3[16.7 µM]	8.2
C[C@H]1CCCCO[C@H](CN(C)C(=O)C2CCCCC2)[C@@H](C)CN([C@@H](C)CO)C(=O)c2cc(NC(=O)c3ccncc3)ccc2O1	-1.6[16.7 µM]	-1.9
C[C@@H]1CCCCO[C@H](CN(C)CC2CCCCC2)[C@H](C)CN([C@@H](C)CO)C(=O)c2cc(NS(=O)(=O)c3cccs3)ccc2O1	-24.2[16.7 µM]	10.0
O=C(Nc1ccccc1)Nc1ccc2c(c1)[C@H]1C[C@@H](CC(=O)N3CCOCC3)O[C@@H](CO)[C@H]1O2	-3.3[16.7 µM]	-13.1
COc1cccc(CNC(=O)C[C@H]2C=C[C@@H](NC(C)=O)[C@H](CO)O2)c1	-9.6[16.7 µM]	-11.7
C/C=C/c1ccc2c(c1)O[C@@H](CN(C)Cc1ccc(F)cc1)[C@@H](C)CN([C@H](C)CO)S2(=O)=O	16.6[16.7 µM]	-1.9
COc1ccc(S(=O)(=O)Nc2ccc3c(c2)C(=O)N([C@@H](C)CO)C[C@@H](C)[C@H](CN(C)Cc2ccc(C(=O)O)cc2)OCCCC[C@@H](C)O3)cc1	9.4[16.7 µM]	1.6
C[C@H](CO)N1C[C@H](C)[C@H](CN(C)Cc2ccccc2)Oc2ccc(NC(=O)Nc3ccc4c(c3)OCO4)cc2CC1=O	8.9[16.7 µM]	4.0
C[C@H](CO)N1C[C@H](C)[C@@H](CN(C)C(=O)CN2CCOCC2)Oc2ncc(-c3ccncc3)cc2C1=O	5.5[16.7 µM]	1.2
C[C@@H]1CCCCO[C@@H](CN(C)Cc2ccc3c(c2)OCO3)[C@@H](C)CN([C@H](C)CO)C(=O)c2cc(NS(=O)(=O)c3ccc(Cl)cc3)ccc2O1	3.6[16.7 µM]	-7.2
C[C@@H]1CCCCO[C@H](CN(C)S(=O)(=O)c2ccc(Cl)cc2)[C@@H](C)CN([C@H](C)CO)C(=O)c2cc(NS(=O)(=O)c3ccc(Cl)cc3)ccc2O1	-87.6[16.7 µM]	-25.3
Cc1noc(C)c1NC(=O)Nc1ccc2c(c1)C(=O)N(C)[C@H]1CC[C@H](CC(=O)N(C)C)O[C@@H]1CO2	-1.9[16.7 µM]	-0.6
COc1ccc(NC(=O)N[C@H]2CC[C@H](CC(=O)NCc3ccccn3)O[C@H]2CO)cc1	11.8[16.7 µM]	0.4
The list goes on.
SMILES	HIV Env fusion	UUG fidelity
Cc1noc(C)c1S(=O)(=O)Nc1ccc2c(c1)C(=O)N([C@@H](C)CO)C[C@@H](C)[C@@H](CN(C)C(=O)NC(C)C)OCCCC[C@H](C)O2	-19.1[16.7 µM]	-0.6
CC(C)NC(=O)Nc1ccc2c(c1)C(=O)N(C)[C@@H]1CC[C@@H](CC(=O)NCC3CCCCC3)O[C@@H]1CO2	-9.5[16.7 µM]	20.2
COCC(=O)N(C)C[C@H]1Oc2cc(-c3cccc(F)c3)ccc2S(=O)(=O)N([C@@H](C)CO)C[C@@H]1C	3.8[16.7 µM]	16.0
Cc1ccc(S(=O)(=O)Nc2ccc3c(c2)C(=O)N([C@H](C)CO)C[C@@H](C)[C@@H](CN(C)S(=O)(=O)c2ccc(Cl)cc2)OCCCC[C@@H](C)O3)cc1	17.3[16.7 µM]	-3.4
COc1ccc(S(=O)(=O)Nc2ccc3c(c2)C(=O)N([C@H](C)CO)C[C@@H](C)[C@@H](CN(C)C(=O)NC2CCCCC2)OCCCC[C@@H](C)O3)cc1	-55.0[16.7 µM]	35.6
CCCc1cn(CC[C@H]2CC[C@H](NS(=O)(=O)c3ccc(-c4ccccc4)cc3)[C@@H](CO)O2)nn1	18.7[16.7 µM]	-6.9
Cc1noc(C)c1NC(=O)N(C)C[C@@H]1Oc2ncc(C#Cc3cccc(F)c3)cc2C(=O)N([C@H](C)CO)C[C@@H]1C	-1.5[16.7 µM]	32.3
CCCN(C)C[C@H]1Oc2ncc(-c3cccc(C#N)c3)cc2C(=O)N([C@@H](C)CO)C[C@H]1C	7.5[16.7 µM]	-9.6
COc1ccccc1S(=O)(=O)N[C@@H]1CC[C@H](CC(=O)N2CCN(C)CC2)O[C@H]1CO	7.5[16.7 µM]	3.2
CNC[C@@H]1Oc2c(NC(=O)Nc3ccc(OC)cc3)cccc2C(=O)N([C@H](C)CO)C[C@@H]1C	-24.9[16.7 µM]	2.4
Cc1ccc(S(=O)(=O)N(C)C[C@H]2Oc3c(NC(=O)c4cc(C)nn4C)cccc3C(=O)N([C@@H](C)CO)C[C@H]2C)cc1	-18.1[16.7 µM]	1.7
COc1cccc(S(=O)(=O)N[C@H]2CC[C@H](CC(=O)NC3Cc4ccccc4C3)O[C@H]2CO)c1	0.4[16.7 µM]	-3.1
C[C@@H]1CN([C@@H](C)CO)C(=O)c2cc(NC(=O)C3CCCCC3)ccc2O[C@@H](C)CCCCO[C@H]1CN(C)S(=O)(=O)c1ccccc1	-7.0[16.7 µM]	-4.1
C[C@@H]1CN([C@@H](C)CO)C(=O)Cc2cc(NC(=O)C3CC3)ccc2O[C@H]1CN(C)Cc1ccc2c(c1)OCO2	-2.4[16.7 µM]	-0.6
O=C(C[C@H]1C=C[C@H](NC(=O)Nc2ccc3c(c2)OCO3)[C@@H](CO)O1)NCc1ccc(F)cc1	11.8[16.7 µM]	-12.7
CC(C)NC(=O)Nc1ccc2c(c1)C(=O)N([C@@H](C)CO)C[C@H](C)[C@H](CN(C)S(=O)(=O)c1cccs1)OCCCC[C@@H](C)O2	-15.6[16.7 µM]	1.3
CCC(=O)Nc1ccc2c(c1)OC[C@H](C)N(Cc1ccccc1F)C[C@H](C)[C@H](OC)CN(C)C2=O	10.7[16.7 µM]	-5.4

Compound activity (PubChem BioAssay)
